VACV Venus inh = inhibitors of vaccinia virus (Venus reporter) | Potency, µM (doses to about 36.5 µM), for the others: at the top dose activity change, negative = inhibition, hits mostly inhibitors | 330,000 compounds, 0.46% hits | Vaccinia virus Venus reporter expression, fluorescence; active means well fitted inhibition curve with a large enough effect; inconclusive means small, poorly fitted or top-dose-only effect; inactive means no such curve, though single readings can be large or run the other way; tested in A549 cells; further: nearly all actives have a fitted effect of over 30% in size; inactives centre near -10
Vaccinia mCherry = inhibitors of vaccinia virus infection (mCherry reporter signal); AID 720579; 310,000 compounds, 0.63% hits; Vaccinia virus mCherry reporter infection, fluorescence; about a quarter of the inactives have no number; Potency, µM (doses to about 36.5 µM), without a hit: at the highest dose activity change, negative = inhibition, actives largely listed as inhibitors; active = well fitted inhibition curve with a large enough effect; inconclusive = small, poorly fitted or top-dose-only effect; inactive = no such curve, though single readings can be large or run the other way; tested in A549 cells; further: nearly all actives have a fitted effect of over 35% in size; inactives centre near -10
Starred values were filed as active, the others as inactive; i = inactive; ? = inconclusive; nt = not tested or not shown; & = joins results of further samples. On the % scale 0 is the no-effect control and ±100 the full control effect; potency means the concentration at half of the fitted maximal effect.

| Molecule | VACV Venus inh | Vaccinia mCherry |
| --- | --- | --- |
| CCOC(=O)C(C(=O)Nc1ccccc1C)C1CCCCC1 (stereo not drawn) | -12% | i |
| Cc1noc(C)c1NC(=O)Nc1ccc2c(c1)C(=O)N([C@@H](C)CO)C[C@@H](C)[C@H](CN(C)C(=O)Nc1cccc3ccccc13)OCCCC[C@H](C)O2 | -4% | -8% |
| CCOC(=O)C1CCCN(CCCc2ccccc2)C1 (stereo not drawn) | -8% | i |
| CCOc1ccc(S(=O)(=O)Nc2ccccc2SC)c2cccnc12 | -18% | -4% |
| Cc1ccc(NS(=O)(=O)c2ccc3c(c2)CCC(=O)N3)cc1C | -20% | -11% |
| CCOc1ccc(N(C(=O)Cn2nnc3ccccc32)C(C(=O)NC(C)(C)CC)c2cccn2C)cc1 (stereo not drawn) | -14% | nt |
| Cc1nn(Cc2ccccc2)c(Cl)c1/C=C1\NC(=S)NC1=O | -5% | ? |
| CC(C)NC(=O)C(=O)NCc1ccccn1 | 2% | -19% |
| COc1ccc(NC(=O)Cn2c(=O)nc(-c3ccccc3)c3ccccc32)cc1OC | -24% | -2% |
| COc1ccccc1-c1nc(COc2ccc(Cl)cc2Cl)no1 | -7% | -10% |
| CC(OC(=O)c1cc2sccc2n1C)C(=O)NCc1cccs1 (stereo not drawn) | -24% | -30% |
| O=C(NCC1OCCc2ccccc21)c1cc(COc2c(F)cccc2F)on1 (stereo not drawn) | -2% | -13% |
| N=c1c(C(=O)NCCc2ccccc2)cc2c(=O)n3ccccc3nc2n1Cc1ccco1 | -8% | -16% |
| CCOC(=O)c1nn(-c2ccc(Cl)cc2)c2nnc(Cc3ccccc3)c(=O)n12 | -6% | -1% |
| C[C@@H]1CCCCO[C@H](CN(C)C(=O)c2ccccc2)[C@@H](C)CN([C@H](C)CO)C(=O)c2cc(NC(=O)c3ccncc3)ccc2O1 | -24% | -5% |
| CN1OC[C@@H]2CN(S(=O)(=O)c3cc(Cl)cc(Cl)c3)[C@H](c3ccc(-c4ccc(C#N)cc4)cc3)C[C@@H]21 | -13% | 9% |
| CC(C)NC(=O)COC(=O)c1ccccc1CSC1=NCCS1 | -2% | 15% |
| O=C(Cn1cnc2cc([N+](=O)[O-])ccc2c1=O)Nc1ccc(N2CCOCC2)cc1 | -4% | ? |
| Cc1ccc(Cl)cc1N1CCN(C(=O)CN2C(=O)COc3ccc(S(=O)(=O)N4CCCCCC4)cc32)CC1 | -18% | ? |
| CC(=O)c1ccc(N2CCN(C(=O)c3cc(-c4ccncc4)nc4ccc(Cl)cc34)CC2)cc1 | -14% | i |
| Cc1cccc(/C=C/C(=O)c2cc(Br)ccc(=O)c2O)c1 | -3% | nt |
| Cc1cc(C(=O)C(C)Cl)c(C)n1Cc1ccco1 (stereo not drawn) | -5% | -12% |
| Cc1ccc(-n2cc(-c3ccccc3)c3c(N4CCOCC4)ncnc32)cc1 | -8% | -18% |
| COc1ccc(NC(=O)CN2CCC(C(N)=O)(N3CCCCC3)CC2)c(OC)c1 | -5% | 1% |

17 structures from above, sorted by count of non-hydrogen atoms, descending.
| Molecule | VACV Venus inh | Vaccinia mCherry |
| --- | --- | --- |
| C[C@@H]1CCCCO[C@H](CN(C)C(=O)c2ccccc2)[C@@H](C)CN([C@H](C)CO)C(=O)c2cc(NC(=O)c3ccncc3)ccc2O1 | -24% | -5% |
| Cc1ccc(Cl)cc1N1CCN(C(=O)CN2C(=O)COc3ccc(S(=O)(=O)N4CCCCCC4)cc32)CC1 | -18% | ? |
| CCOc1ccc(N(C(=O)Cn2nnc3ccccc32)C(C(=O)NC(C)(C)CC)c2cccn2C)cc1 (stereo not drawn) | -14% | nt |
| CN1OC[C@@H]2CN(S(=O)(=O)c3cc(Cl)cc(Cl)c3)[C@H](c3ccc(-c4ccc(C#N)cc4)cc3)C[C@@H]21 | -13% | 9% |
| CC(=O)c1ccc(N2CCN(C(=O)c3cc(-c4ccncc4)nc4ccc(Cl)cc34)CC2)cc1 | -14% | i |
| N=c1c(C(=O)NCCc2ccccc2)cc2c(=O)n3ccccc3nc2n1Cc1ccco1 | -8% | -16% |
| COc1ccc(NC(=O)Cn2c(=O)nc(-c3ccccc3)c3ccccc32)cc1OC | -24% | -2% |
| O=C(Cn1cnc2cc([N+](=O)[O-])ccc2c1=O)Nc1ccc(N2CCOCC2)cc1 | -4% | ? |
| COc1ccc(NC(=O)CN2CCC(C(N)=O)(N3CCCCC3)CC2)c(OC)c1 | -5% | 1% |
| Cc1ccc(-n2cc(-c3ccccc3)c3c(N4CCOCC4)ncnc32)cc1 | -8% | -18% |
| CCOc1ccc(S(=O)(=O)Nc2ccccc2SC)c2cccnc12 | -18% | -4% |
| Cc1ccc(NS(=O)(=O)c2ccc3c(c2)CCC(=O)N3)cc1C | -20% | -11% |
| Cc1nn(Cc2ccccc2)c(Cl)c1/C=C1\NC(=S)NC1=O | -5% | ? |
| Cc1cccc(/C=C/C(=O)c2cc(Br)ccc(=O)c2O)c1 | -3% | nt |
| CCOC(=O)C1CCCN(CCCc2ccccc2)C1 (stereo not drawn) | -8% | i |
| Cc1cc(C(=O)C(C)Cl)c(C)n1Cc1ccco1 (stereo not drawn) | -5% | -12% |
| CC(C)NC(=O)C(=O)NCc1ccccn1 | 2% | -19% |

More entries
| Molecule | VACV Venus inh | Vaccinia mCherry |
| --- | --- | --- |
| Cc1cc(O)c(NC(=O)c2cc([N+](=O)[O-])ccc2Cl)cc1C | -12% | -26% |
| CN1C(=S)SC(/[N+]([O-])=C\c2ccccc2)C1(C)C (stereo not drawn) | -1% | -2% |
| COc1cc(OC)c(NC(=O)COc2ccccc2-c2nnc(-c3ccccc3)o2)cc1Cl | -11% | -12% |
| COc1ccc(N=C2SCC(c3ccc(C)cc3)=NN2CCO)cc1 | -7% | i |
| CS(=O)(=O)N(CCc1ccccc1)CC(=O)N1CCc2ccccc2C1 | -16% | -24% |
| CCN(CC)S(=O)(=O)c1ccc(C)c(NC(=O)Cc2ccc(S(=O)(=O)N3CCOCC3)s2)c1 | -19% | -1% |
| O=C(Cn1c(C(F)(F)F)nc2ccccc21)Nc1ccccc1N1CCOCC1 | 2% | nt |
| COC(=O)c1ccccc1NC(=O)CSc1nc2ccsc2c(=O)n1Cc1ccc(C(=O)O)cc1 | -3% | i |
| CCOC(=O)CSc1nc2c(sc(=S)n2-c2ccccc2OC)c(=O)n1-c1ccccc1OC | -3% | -19% |
| Cc1ccc(NC(=O)/C(C#N)=C\c2ccc(Cl)cc2Cl)cc1C | -4% | 8% |
| CCc1nc2ccc(C(=O)N(CC)CCN(C)C)cn2c1N(C)C(=O)c1cccc(OC)c1 | 5% | 17% |
| O=C1NC(=O)C2(CCCC2C(=O)O)N1 (stereo not drawn) | -7% | -10% |
| CCCCN(CC)C(=O)c1cc2cc3ccc(Cl)cc3nc2o1 | -21% | -8% |
| COc1ccc(NS(=O)(=O)c2ccc(NC(=O)c3ccc(CN4CCOCC4)cc3)cc2)cc1 | -25% | ? |
| COc1ccc(N2CCN(C(=O)C3CCN(S(=O)(=O)c4ccc(F)cc4)CC3)CC2)cc1 | -6% | -5% |
| CCOCCCNC(=O)c1ccc(-c2nc(CS(=O)(=O)c3ccccc3)c(C)o2)cc1 | -21% | i |
| COc1ccc(-n2c(-c3ccc(Br)cc3)nc(=S)c3c2CCCC3)cc1 | -1% | -7% |
| Cc1nc2ccccn2c1-c1csc(Nc2ccc(C(=O)O)cc2)n1 | -27% | i |
| CC(CC(C)(C)N1CC1)=NO | -7% | i |
| Cn1cc(CNCCN2CCCCC2=O)c(-c2cccc(Cl)c2)n1 | 4% | i |
| CCOc1ccc(Oc2c(/C=N/NC(N)=O)c(C)nn2-c2ccccc2)cc1 | -9% | i |
| COC(=O)[C@@H](N)Cc1ccc(O)c(O)c1 | -12% | -16% |
| O=C(Nc1ccc2c(c1)OCCO2)C1CC(O)CN1C(=O)Nc1ccccc1 (stereo not drawn) | -5% | -17% |
| Cc1cc(C(F)F)n2ncc(C(=O)N3CCC(C(N)=O)CC3)c2n1 | -2% | -11% |
| O=C(/C=C/c1ccccc1)NC(=S)Nc1ccccc1 | -10% | -11% |
| Cc1cnc(-n2ncc(C(=O)NCCN3CCOCC3)c2C2CC2)nc1-c1cccs1 | -17% | -2% |
| O=C(C1CCCCC1)N1CCN=C1SCc1cccnc1 | 4% | i |
| O=C(Cc1ccccc1)NCC(=O)OCC(=O)c1cccs1 | -7% | i |
| COc1cc(C(=O)OCC(=O)NC(=O)c2cccn2C)ccc1OC(F)F | -13% | i |
| CCN(CC)CCNC(=O)C(Cl)=C1C(Cl)=C(Cl)C(Cl)=C1Cl | 0.79µM* | 2µM* |
| CC1Cc2ccccc2N1Cc1cc(=O)c(OCC(=O)NCCc2ccccc2)co1 (stereo not drawn) | -10% | -12% |
| COc1ccc(N(CN2C(=O)C3C4C=CC(C4)C3C2=O)C(=O)c2ccco2)cc1 (stereo not drawn) | -4% | -7% |
| C/C(=N\O)C(=O)NCCN(C)C | -7% | -7% |
| O=S(=O)(c1ccccc1)c1nc(-c2ccc(F)cc2)oc1N1CCOCC1 | -18%&-9% | -6%&-5% |
| COc1ccc(NC(=O)CN2CCN(c3c(C)cccc3C)CC2)cc1 | -18% | ? |
| Cc1ccc(C)c(N2N=C(C(=O)OCc3nnc(-c4ccccc4Br)o3)CCC2=O)c1 | -4% | -3% |
